Screening results: PubChem, several laboratories
RanGTP-Imp inh – inhibitors of RanGTP-importin-beta interaction, primary screen, biochemical, FRET, CFP-Ran, YFP-importin-beta, homogeneous | cell-free CFP-Ran/YFP-importin-beta FRET ratio | inhibition, % (concentration not given with the values) | actives 1.1% (n = 300,000) | AID 2216, 2009;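 active = most replicates above 15%; inconclusive = exactly half above 15%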;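 also: 0% = DMSO wells and 100% = Ran loaded with GDP instead of GTP; wells of about 40 µL received 100 nL stock; the first replicate is given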
UCH37 DUB inh – inhibitors of human UCH37 deubiquitinase, primary screen, biochemical, Ub-AMC cleavage, fluorescence | purified proteasome/UCH37 | actives 0.33% (n = 330,000) | inhibition, % (test concentration not listed) | Ubiquitin carboxyl-terminal hydrolase isozyme L5 (Homo sapiens), Q9Y5K5;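 active = mean of two replicates above 20%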;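 also: 0% = compound-free wells with enzyme and 100% = wells lacking proteasome; stock transfer was 100 nL into about 20 µL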
Target sequence (Q9Y5K5 whole entry, looked up): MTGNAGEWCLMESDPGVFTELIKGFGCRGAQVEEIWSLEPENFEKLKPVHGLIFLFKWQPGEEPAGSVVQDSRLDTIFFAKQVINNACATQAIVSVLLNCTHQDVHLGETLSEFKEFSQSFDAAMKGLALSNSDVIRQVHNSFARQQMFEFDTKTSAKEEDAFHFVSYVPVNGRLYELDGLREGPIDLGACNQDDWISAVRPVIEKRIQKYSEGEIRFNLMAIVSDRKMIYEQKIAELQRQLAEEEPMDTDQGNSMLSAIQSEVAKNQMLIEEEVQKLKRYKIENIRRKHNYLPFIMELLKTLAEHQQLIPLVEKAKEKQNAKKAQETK
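Assay system: Proteasome-bound UCH37. Buffer or medium: pH 7.4 Tris-HCl (50 mM) with ovalbumin, ATP-MgCl2, DTT. Incubation: 30 min preincubation with enzyme, 25 min cleavage at room temperature. Measured by: fluorescence, ex 355 nm, em 460 nm. Read-out basis: percent inhibition. Control set: wells without proteasome as full block, compound-free enzyme plus substrate as uninhibited.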
MLL AF4-AF9 inh – inhibitors of AF4 peptide binding to AF9, primary screen, biochemical, AlphaScreen, biotin-AF4 peptide, FLAG-AF9, single point | inhibition, % at 10 µM | actives 0.47% (n = 350,000);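 active = every replicate reaching a set inhibition limit, whatever the replicate mean, cut at about 25% in these data; inconclusive = mean inhibition reaches that limit but some replicates miss it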;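 also: 0% = plate neutral control median and 100% = total signal loss; the record names both 10 and 1 µM as test concentration; the first replicate is given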
Ecoli growth – E. coli growth inhibition, primary screen, OD600; actives 0.21% (n = 330,000); AID 1053175, 2014; Escherichia coli growth, 23 h; hits give low values; OD600 absorbance (concentration not given with the values);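 active = OD600 absorbance below the run mean of sample wells minus 3.6 SD, in any replicate, cut at about 0.56 in these data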;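 also: stock transfer was 300 nL into about 60 µL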
Vif TR-FRET – inhibitors of Vif binding to APOBEC3G peptide, primary screen, biochemical, TR-FRET, GST-Vif 1-94, biotin-A3G peptide, dose response retest (AID 1117319); actives 0.57% (n = 260,000); inhibition, %; hits with a dose series show IC50 in µM; TR-FRET GST-Vif / biotin-A3G peptide binding; higher % means a stronger effect; test concentration not given here; strong numbers were not always called active; Virion infectivity factor (Human immunodeficiency virus type 1 group M subtype B (isolate …;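 active = above the screen mean plus three standard deviations and confirmed in dose response; inconclusive = results disagree or hit not tested in dose response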;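 also: Vif residues 1-94 fused to GST binding biotinylated APOBEC3G peptide 110-148; 0% = full assay without inhibitor and 100% = GST in place of GST-Vif; retest series ran down from 100 µM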
FGF22 binding – binders of human FGF22 protein, primary screen, FGF22 synaptogenesis inhibitor project, biophysical, thermal shift, single point; recombinant FGF22 thermal shift, SYPRO orange fluorescence; percent of sucrose octasulfate shift, DMSO zero; calls only at 9.99 µM; actives 1.5% (n = 340,000); AID 651658, 2012;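 active = melting point raised past a set limit in the mean and every replicate; inconclusive = no clear call; three in four hits are not shown here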
Target sequence (Q9HCT0 whole entry, looked up): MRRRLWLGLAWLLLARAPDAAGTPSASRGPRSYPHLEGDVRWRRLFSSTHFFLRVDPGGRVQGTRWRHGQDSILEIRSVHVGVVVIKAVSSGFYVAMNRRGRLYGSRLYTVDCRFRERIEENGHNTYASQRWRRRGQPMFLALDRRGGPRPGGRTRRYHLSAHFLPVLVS
HNF4A DNA FP – change in binding of human HNF4A to DNA, primary screen, biochemical, fluorescence polarization, FITC-DNA; 1 h; actives 0.3% (n = 360,000); activity change, % at 10 µM; in the data active = activity change above about 30%, passing the limit was not always enough;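 also: controls were the assay level and a saturating level of protein; the project sought stronger binding though the title names inhibitors; some compounds called inactive have numbers as strong as hits; positive values seem to mean higher polarization but the record does not say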
Target sequence (P41235 whole entry, looked up): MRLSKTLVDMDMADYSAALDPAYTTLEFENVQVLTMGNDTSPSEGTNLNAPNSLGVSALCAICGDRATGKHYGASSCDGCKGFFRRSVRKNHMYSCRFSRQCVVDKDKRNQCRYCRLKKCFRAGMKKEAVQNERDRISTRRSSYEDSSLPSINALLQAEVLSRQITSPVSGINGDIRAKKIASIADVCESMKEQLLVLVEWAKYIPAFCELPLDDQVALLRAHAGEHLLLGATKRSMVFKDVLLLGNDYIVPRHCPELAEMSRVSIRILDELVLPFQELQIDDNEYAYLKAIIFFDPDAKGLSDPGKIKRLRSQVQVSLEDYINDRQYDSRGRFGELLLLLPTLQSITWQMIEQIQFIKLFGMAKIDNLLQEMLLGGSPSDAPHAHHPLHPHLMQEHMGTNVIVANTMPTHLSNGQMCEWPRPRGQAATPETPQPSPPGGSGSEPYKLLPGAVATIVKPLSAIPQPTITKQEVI
* marks the source's active call; other numbers are inactive results; i = inactive; ? = inconclusive; · = no result given.

SMILES | RanGTP-Imp inh | UCH37 DUB inh | MLL AF4-AF9 inh | Ecoli growth | Vif TR-FRET | FGF22 binding | HNF4A DNA FP
COC(=O)c1ccccc1NC(=O)CCn1c(=O)oc2ccccc21 | 2.6 | 1.2 | 1.6 | 0.66 | · | i | 2.2
C=CCNC(=O)c1cc2sccc2n1C | 1.9 | 1.6 | 3.3 | 0.67 | -5% | i | 2.8
CC(C)Cc1nc(Cl)c(C#N)c2c1CCC2 | 0.6 | 0.0 | -4.2 | 0.62 | -4% | i | 1.6
CC(=O)NS(=O)(=O)c1ccc(NC(=O)c2cc(-c3ccc(C)cc3)nc3ccccc23)cc1 | -4.9 | 2.6 | -0.5 | 0.67 | ? | i | -1.1
Cc1cc(C)nc(CC(N)=O)n1 | 1.6 | 1.1 | · | 0.69 | -7% | · | -1.9
COc1ccc(/C=N/NC(=O)CCSc2nc3ccccc3s2)cc1OC | -0.2 | · | 5.0 | · | -5% | · | 0.9
O=C(O)c1cccc(NC(=O)c2ccccc2NC(=O)c2ccccc2F)c1 | 4.0 | 1.9 | -3.1 | 0.64 | · | i | 2.4
C[n+]1ccccc1/C=C/c1ccc2ncccc2c1 | 1.7 | 2.5 | 0.2 | 0.69 | -3% | i | -2.1
CCCCNC(=O)c1ccccc1C(=O)NCCCC | -0.5 | -0.2 | · | 0.66 | 6% | · | -0.6
COc1ccc(S(=O)(=O)NCc2ccccn2)cc1Br | 0.7 | 1.2 | 2.0 | 0.67 | · | i | -3.3
Cc1cc(=O)nc2c3ccccc3n(CC(=O)NCCCN3CCCC3=O)n12 | 2.5 | -3.1 | -2.9 | 0.65 | · | i | 2.2
O=C(NCCS(=O)(=O)NC1CCCC1)c1ccc(F)cc1 | 8.0 | 1.0 | -0.8 | 0.69 | 6% | i | 4.6
Cc1cc2ccccc2n1CCNCc1c(C(=O)N2CCOCC2)nc2ccccn12 | -6.0 | 0.0 | 12 | 0.68 | 5% | i | 1.1
Cc1cccc(C2N=C(N)Nc3nc4ccccc4n32)c1 (stereo not given) | 0.1 | 0.7 | 1.4 | 0.66 | 8% | i | 5.8
CCc1ccc(NC(=O)CCNS(=O)(=O)c2cccc3nsnc23)cc1 | 1.1 | 3.5 | · | 0.63 | 5% | · | -2.7
COc1ccc(OC)c(C2C(C(=O)c3cccs3)=C(O)C(=O)N2CCN(C)C)c1 (stereo not given) | 0.4 | 5.6 | · | 0.69 | 1% | · | 8.9
CSc1ncc(C(=O)Nc2ccccc2F)c(-c2ccccc2)n1 | 2.3 | 0.7 | -2.6 | 0.71 | -2% | i | -0.7
COc1ccc(CS(=O)c2nc(C)cc(C)c2S(C)(=O)=O)cc1 (stereo not given) | -3.6 | 1.4 | -1.1 | 0.69 | 1% | i | 1.4
O=C(NCc1ccccc1)N1CCCC1 | 0.6 | 4.4 | 5.3 | 0.65 | · | i | -1.2
Cc1cccc(C)c1NC(=O)Cn1c(=O)c(N2CCCCC2)c(N)n(C)c1=O | · | 1.7 | 2.3 | 0.7 | -3% | i | -0.4
COc1ccc(C2c3c(ncn(CCCO)c3=N)Oc3ccc4ccccc4c32)cc1 (stereo not given) | -0.7 | 3.4 | 17 | 0.63 | -5% | i | 1.2
Cc1ccc(Nc2nc(OC(C(F)(F)F)C(F)(F)F)nc(N3CCOCC3)n2)cc1 | 1.8 | -2.8 | · | 0.78 | 11% | · | -0.4
Cc1ccc(S(=O)(=O)N2CCN(c3cccc(C)c3)CC2)cc1 | 0.5 | 1.4 | 4.7 | 0.72 | · | i | -1.1
CCO/C([O-])=N/c1sn[n+](C)c1C | 0.1 | 4.3 | -1.3 | 0.66 | 5% | i | 2.9
COC(=O)CC1C(=O)NCCN1C(=S)Nc1ccccc1Cl (stereo not given) | -2.7 | 3.5 | -1.1 | 0.69 | 6% | i | 0.6
O=C(c1cc2ccccc2o1)c1cccs1 | -0.2 | 6.7 | · | 0.62 | -11% | · | 1.9
CC(OC(=O)c1ccccc1C(=O)N(C)c1ccccc1)C(=O)Nc1ccccc1[N+](=O)[O-] (stereo not given) | -2.0 | 4.0 | 4.7 | 0.64 | 4% | i | -4.4
CCc1nnc(NC(=O)CSc2nnc(-c3ccccc3O)n2-c2ccc(C)cc2)s1 | 6.6 | -100 | · | 0.75 | -30% | · | -1.2
Cc1ccc(O)c(NC(=O)COc2cc(C)ccc2C)c1 | -0.6 | 1.0 | · | 0.79 | 4% | · | -1.9
OCc1nc2ccccc2n1Cc1c(F)cccc1Cl | -0.2 | 3.1 | 4.1 | 0.65 | 2% | i | 2.8
CCCCNC(NCCCC)=C(S(=O)(=O)CC)S(=O)(=O)CC | -0.4 | 4.6 | · | 0.72 | -2% | · | 0.9
Cc1ccc(S(=O)(=O)N2CCOCC2)cc1NC(=O)CN1CCC(Cc2ccccc2)CC1 | -0.6 | · | 0.3 | · | 27% | i | -0.2
O=C(Nc1nc2ccccc2[nH]1)c1ccccc1[N+](=O)[O-] | -1.9 | · | 1.1 | · | · | i | -1.7
COc1cccc(CNC(=O)C(=O)NCC2CCCN2S(=O)(=O)c2cc(C)ccc2C)c1 (stereo not given) | 3.4 | 2.1 | 1.4 | 0.64 | -4% | i | 4.1
OCCNc1nc(-c2ccccc2)c2cc(Cl)ccc2n1 | 1.3 | -201 | -11 | 0.69 | 25% | i | -5.2
CCCCS(=O)(=O)Nc1ccc2cn[nH]c2c1 | -1.1 | 1.1 | 0.2 | 0.72 | -2% | i | -1.9
Cc1ccc(S(=O)(=O)N2CC3=C(C2)C2CC2(C)C3)cc1 (stereo not given) | · | · | -2.1 | · | · | i | 3.9
CCOC(=O)/C(C#N)=C1/C=Nc2ccccc2N1 | 27* | 7.6 | · | 0.7 | -1% | · | -1.8
Cc1nc(SCC(=O)Nc2ccc(OCc3ccccc3)cc2)n[nH]1 | 1.1 | · | -0.3 | · | 14% | i | 4.5
CCN1CCN(C(=S)c2ccc([N+](=O)[O-])cc2)CC1 | 3.0 | 4.1 | -0.6 | 0.67 | · | i | -2.6

Another view of part of the listing above:
CCOC(=O)/C(C#N)=C1/C=Nc2ccccc2N1
  RanGTP-Imp inh: 27* | UCH37 DUB inh: 7.6 | MLL AF4-AF9 inh: · | Ecoli growth: 0.7 | Vif TR-FRET: -1% | FGF22 binding: · | HNF4A DNA FP: -1.8
CCCCS(=O)(=O)Nc1ccc2cn[nH]c2c1
  RanGTP-Imp inh: -1.1 | UCH37 DUB inh: 1.1 | MLL AF4-AF9 inh: 0.2 | Ecoli growth: 0.72 | Vif TR-FRET: -2% | FGF22 binding: i | HNF4A DNA FP: -1.9
CCc1nnc(NC(=O)CSc2nnc(-c3ccccc3O)n2-c2ccc(C)cc2)s1
  RanGTP-Imp inh: 6.6 | UCH37 DUB inh: -100 | MLL AF4-AF9 inh: · | Ecoli growth: 0.75 | Vif TR-FRET: -30% | FGF22 binding: · | HNF4A DNA FP: -1.2

Following part.
SMILES | RanGTP-Imp inh | UCH37 DUB inh | MLL AF4-AF9 inh | Ecoli growth | Vif TR-FRET | FGF22 binding | HNF4A DNA FP
Cc1ccccc1OCC(=O)Nc1ccc(N2CCN(C(=O)c3ccco3)CC2)cc1 | 4.7 | 1.3 | -0.7 | 0.69 | · | i | 2.2
CN(C)C(=O)N1CCN(C(=O)N2CCOCC2)CC1 | ? | 1.3 | · | 0.73 | 2% | · | -4.5
CCOC(=O)C1CCN(C(=O)/C=C/c2ccccc2OC)CC1 | -0.7 | -4.5 | · | 0.68 | -3% | · | -0.8
COc1ccc(S(=O)(=O)N2CCC(C(=O)NN3CCCCC3)CC2)cc1OC | · | 0.7 | -0.8 | 0.67 | · | i | 0.2
CN(c1ccccc1C(=O)N1CCOCC1)S(C)(=O)=O | 4.3 | 1.8 | · | 0.76 | -9% | · | -0.9
COC(=O)c1ccc(NC(=O)C2CCCO2)cc1 (stereo not given) | 6.0 | 0.8 | · | 0.71 | 2% | · | -1.9
Cc1ccc(C)c(COC(=O)c2cccc(S(=O)(=O)N3CCCC3)c2)c1 | · | 0.8 | -2.3 | 0.65 | 4% | i | -4.2
O=C1CCCC2=C1C(c1ccncc1)c1c(nc(SCc3ccccc3)[nH]c1=O)N2 (stereo not given) | -2.7 | -129 | · | 0.69 | -2% | · | 1.4
Cc1ccc(/C=C(\CCC(=O)O)c2nc3ccccc3s2)cc1[N+](=O)[O-] | -2.2 | 10 | 6.8 | 0.71 | -10% | i | 1.6
CC(=O)Nc1ccc(N=NC2C(=O)N(C(N)=S)N=C2C)cc1 (stereo not given) | -3.4 | 20 | -4.0 | 0.67 | · | i | 2.0
Cc1ccccc1C(=O)OCC(=O)Nc1cccc(S(=O)(=O)NC2=NCCC2)c1 | · | 3.6 | -0.7 | 0.7 | · | i | 5.1
CC1(c2ccccc2)NC(=O)N(NC(=O)CSc2n[nH]c(N)n2)C1=O (stereo not given) | 3.0 | -1.1 | -2.4 | 0.67 | 30% | i | -0.1
CC(=O)Nc1ccc(NC(=O)COc2ccccc2C(=O)Nc2cccc(Cl)c2Cl)cc1 | 7.6 | 0.2 | 2.2 | 0.66 | ? | i | -6.8
O=C(COc1ccc(S(=O)(=O)N2CCc3ccccc32)cc1Cl)NCc1ccccn1 | -5.0 | 3.6 | · | 0.68 | 21% | · | 2.3
CCN=C1S/C(=C\c2sccc2C)C(=O)N1CC | -1.1 | 1.9 | 13 | 0.66 | -16% | i | 1.3
COc1cccc(NC(=O)C2C3C=CC(O3)C2C(=O)NCc2cccnc2)c1 (stereo not given) | 0.8 | 2.2 | · | 0.74 | 2% | · | -2.2
Oc1c(Br)cc(Cl)cc1C=Nc1ccccc1Br | -6.0 | 0.0 | -1.4 | 0.71 | -3% | i | -5.5
CCCCC1=CC2=CC(=O)C(C)(OC(=O)CC)C(=O)C2=CN1c1cccc(C#N)c1 (stereo not given) | -3.5 | -0.9 | -5.2 | 0.71 | · | i | -0.8
CCN(C(=O)CSc1ncn[nH]1)c1cccc2ccccc12 | 0.5 | 6.4 | · | 0.69 | 14% | · | -0.8
Cc1cccc2sc(N(CCN(C)C)C(=O)/C=C/c3cccs3)nc12 | 4.9 | -13 | · | 0.68 | -6% | · | -0.4
Cc1nnc(SCC(=O)Nc2nccs2)[nH]c1=O | 1.7 | 3.7 | · | 0.73 | -1% | · | -3.0
NC(=O)C1CCN(C(=O)CN2CCCc3ccccc32)CC1 | 3.4 | -0.9 | · | 0.76 | 16% | · | -3.8
CC(Oc1ccccc1)C(=O)N=C1SC2CS(=O)(=O)CC2N1c1cccc(F)c1 (stereo not given) | 4.6 | 2.3 | 0.1 | 0.68 | · | i | 5.7
O=C(OCc1nnc(-c2ccccc2)o1)c1cccnc1Cl | 1.7 | 1.4 | -4.1 | 0.67 | 29% | i | -0.2
CCN(c1ccccc1)S(=O)(=O)c1ccc(N2CCN(c3ccccc3O)CC2)nc1 | · | -3.4 | 0.3 | 0.71 | -1% | i | 0.6
O=C(NCc1ccco1)/C(=C/c1ccco1)NC(=O)c1ccccc1 | -2.6 | 1.0 | -0.2 | 0.68 | · | i | -2.7
O=C(N/N=C\c1cccnc1)c1cc(-c2ccccc2)nc2c(Cl)cccc12 | -2.0 | · | 3.1 | · | · | i | 5.0
Cn1nnc2cc(NC(=O)N3CCN(c4ccccn4)CC3)ccc21 | -2.0 | -2.7 | · | 0.68 | -2% | · | -0.6
CNC(=O)CSc1nc2c(c(=O)n(C)c(=O)n2C)n1Cc1ccc(C)cc1 | -0.5 | 0.1 | 2.3 | 0.68 | 0% | i | 2.2

These rows are one share of the data; count on the stated rates, not on these rows.
